Ecoli rRNA inh: selective bacterial rRNA inhibition in E. coli; GFP signal change (wild-type ribosome), % (no concentration beside the values); E. coli WT GFP vs humanized-ribosome RFP mutants, fluorescence, 24 h; stronger effect = lower value; DMSO median 0, no signal -100; 1.6% of 350,000 active;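 active = significant combined selectivity score with lowered wild-type GFP, culture density cut under 30%, mutant RFP and density less affected; inactive = any of these conditions unmet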; note: one replicate is shown; some compounds called inactive have numbers as strong as hits
AF4-AF9 inh: blocks AF4 peptide binding to human AF9; P42568; AlphaScreen, biotin-AF4 peptide binding to FLAG-AF9; inhibition, % at 10 µM; 0.47% of 350,000 active; AID 651704;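 active = every replicate reaching a set inhibition limit, whatever the replicate mean, cut at about 25% in these data; inconclusive = mean inhibition reaches that limit but some replicates miss it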;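 note: 0% = plate neutral control median and 100% = total signal loss; the record names both 10 and 1 µM as test concentration; the first replicate is given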
ALR H2O2 inh: human ALR oxidase inhibition via reduced H2O2 | P55789 | purified ALR, DTT oxidation, H2O2 HRP-luminol luminescence | inhibition, % (concentration not given with the values) | 3.8% of 290,000 active | AID 485317;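 active = mean and each replicate at 75% or more; inconclusive = only one of the two met; inactive = neither met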;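 note: stock transfer was 7.5 nL into about 7.5 µL; 0% = neutral wells and 100% = wells with inactivated enzyme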
Target sequence (P55789 whole entry, looked up): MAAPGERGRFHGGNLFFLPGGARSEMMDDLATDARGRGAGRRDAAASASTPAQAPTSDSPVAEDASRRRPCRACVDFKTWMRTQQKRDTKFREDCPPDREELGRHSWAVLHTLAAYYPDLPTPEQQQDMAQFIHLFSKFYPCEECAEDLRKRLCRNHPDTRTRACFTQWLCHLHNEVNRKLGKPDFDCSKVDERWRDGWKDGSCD
Ecoli growth: blocks Escherichia coli growth; OD600, 23 h; stronger effect = lower value; OD600 absorbance (concentration not given with the values); 0.21% of 330,000 active; AID 1053175;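 active = OD600 absorbance below the run mean of sample wells minus 3.6 SD, in any replicate, cut at about 0.56 in these data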;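 note: stock transfer was 300 nL into about 60 µL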
FGF22 binding: shifts melting point of recombinant human FGF22 | recombinant FGF22 thermal shift, SYPRO orange fluorescence; percent of sucrose octasulfate shift, DMSO zero | calls only at 9.99 µM | 1.5% of 340,000 active | Q9HCT0;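 active = melting point raised past a set limit in the mean and every replicate; inconclusive = no clear call; three in four hits are not shown here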
Target sequence (Q9HCT0 whole entry, looked up): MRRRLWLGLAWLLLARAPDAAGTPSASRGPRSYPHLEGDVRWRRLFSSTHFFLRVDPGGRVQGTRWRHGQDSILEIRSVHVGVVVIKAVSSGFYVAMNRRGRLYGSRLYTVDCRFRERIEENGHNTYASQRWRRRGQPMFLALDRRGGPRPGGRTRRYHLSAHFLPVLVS
HNF4A DNA FP: change in binding of human HNF4 alpha to DNA | P41235 | HNF4a-FITC DNA binding, fluorescence polarization, 1 h | activity change, % at 10 µM | 0.3% of 360,000 active | AID 1224865; in the data active = activity change above about 30%, passing the limit was not always enough;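 note: controls were the assay level and a saturating level of protein; the project sought stronger binding though the title names inhibitors; some compounds called inactive have numbers as strong as hits; positive values seem to mean higher polarization but the record does not say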
Target sequence (P41235 whole entry, looked up): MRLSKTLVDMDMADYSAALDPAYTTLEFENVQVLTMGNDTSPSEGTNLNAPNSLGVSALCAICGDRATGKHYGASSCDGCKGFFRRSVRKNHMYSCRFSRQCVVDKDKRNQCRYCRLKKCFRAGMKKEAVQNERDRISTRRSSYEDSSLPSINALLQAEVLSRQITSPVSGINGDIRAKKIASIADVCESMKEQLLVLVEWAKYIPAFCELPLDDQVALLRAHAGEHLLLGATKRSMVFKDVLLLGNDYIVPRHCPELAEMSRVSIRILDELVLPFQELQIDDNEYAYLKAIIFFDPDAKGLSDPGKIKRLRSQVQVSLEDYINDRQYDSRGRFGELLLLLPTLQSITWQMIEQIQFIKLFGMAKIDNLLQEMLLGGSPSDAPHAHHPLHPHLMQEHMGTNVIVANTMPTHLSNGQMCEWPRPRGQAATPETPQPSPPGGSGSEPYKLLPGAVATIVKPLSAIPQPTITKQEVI
Vif A3G: HIV-1 Vif–A3G interaction blockers – biochemical, TR-FRET, GST-Vif 1-94, biotin-A3G peptide, dose response retest, primary screen (AID 1117319); TR-FRET GST-Vif / biotin-A3G peptide binding; higher % means a stronger effect; test concentration not given here; strong numbers were not always called active; one-dose inhibition, %; IC50 in µM for titrated hits; 0.57% of 260,000 active;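 active = above the screen mean plus three standard deviations and confirmed in dose response; inconclusive = results disagree or hit not tested in dose response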;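 note: Vif residues 1-94 fused to GST binding biotinylated APOBEC3G peptide 110-148; 0% = full assay without inhibitor and 100% = GST in place of GST-Vif; retest series ran down from 100 µM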
Ecoli rRNA inh OD600: also measured in Ecoli rRNA inh; calls as there; OD600 change, %; measured here: OD600 growth;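 optical density of the mix in the first replicate; 0 = DMSO median and -100 = no signal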
Ecoli rRNA inh RFP: further read-out of Ecoli rRNA inh, marked with its call; RFP signal change, %; measured here: RFP humanized mutant strains;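 first replicate; 0 = DMSO median and -100 = no signal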
The depositor's hits bear a star; i = inactive; ? = inconclusive; . = no result given. This is a subset, so the mix of outcomes need not match the whole.

The line under a structure holds: HNF4A DNA FP, ALR H2O2 inh, Ecoli rRNA inh, Vif A3G, FGF22 binding, Ecoli growth, AF4-AF9 inh, Ecoli rRNA inh RFP, Ecoli rRNA inh OD600
CCOc1ccc(-n2c(=O)c3sccc3n(CC(=O)NCc3ccco3)c2=O)cc1
  -0.5, -1, ., 8%, ., 0.76, ., ., .
COc1ccc(NC(=O)C/C(C)=N/NC(=O)C(=O)NC2CCCCC2)c(OC)c1
  -1.6, 21, 1, 5%, i, ., -1.8, 3.4, 4
O=C(NNc1nc2c(F)cc(F)cc2s1)C1COc2ccccc2O1 (stereo not drawn)
  -3.7, ., -47, 5%, i, 0.62, -1.5, -8.3, -72
O=C(N/N=C/c1cccc(O)c1)c1csc2ccccc12
  2.9, 33, ., 22%, ., ., ., ., .
C[C@H](CO)N1C[C@H](C)[C@H](CN(C)C(=O)Nc2ccccc2)Oc2c(NC(=O)c3ccncc3)cccc2C1=O
  ., ., 2, ., i, ., -1.6, 1.9, -1
CCc1c(C(=O)NNC(=S)NC2CCCCC2)csc1C
  0.6, 29, -10, -3%, i, 0.65, -3.4, 8.8, 7
CCC(=O)N(C)C[C@@H]1Oc2ncc(C#CCc3ccccc3)cc2C(=O)N([C@@H](C)CO)C[C@H]1C
  ., ., 2, ., i, ., -1.6, 0.5, -1
Cc1cc2c(c(=O)n1CCc1ccccc1)C(c1ccco1)C(C#N)=C(N)O2 (stereo not drawn)
  3.9, 2, ., -4%, ., 0.68, ., ., .
Cn1nnnc1SCC(=O)Nc1ccccc1[N+](=O)[O-]
  -1.9, ., ., -2%, ., 0.74, ., ., .
O=C(O)CC(CCc1ccccc1)OC1OC(CO)C(O)C(O)C1O (stereo not drawn)
  -15, 47, -2, ., i, 0.74, 7.2, -1.5, 7
C[C@H](CO)N1C[C@H](C)[C@H](CN(C)S(C)(=O)=O)Oc2c(NS(=O)(=O)c3ccc(F)cc3)cccc2C1=O
  ., ., 3, ., i, ., -1.1, 1.5, 5
CN1C(=O)c2cc(NS(C)(=O)=O)ccc2OC[C@H]2O[C@H](CC(=O)NCc3ccccc3)CC[C@@H]21
  ., ., 6, ., i, ., -0.2, -1.6, 19
Cn1c(=O)c(-c2cc(=O)[nH][nH]2)c(O)c2ccccc21
  1.6, 13, -34*, ., i, 0.7, -0.4, -5.2*, 2.7*
C[C@H]1CN([C@@H](C)CO)C(=O)c2cc(NC(=O)c3ccncc3)ccc2O[C@@H]1CN(C)C(=O)NC1CCCCC1
  ., ., 4, ., i, ., -2.9, -3.2, 5
CCc1nc2ccc(C(=O)N(CC)CCN(C)C)cn2c1N(C)C(=O)c1cccc(OC)c1
  1.8, ., 8, ., i, ., -0.8, 0.2, 8
CC1=CC2=C(C=O)C(=O)C(C)(O)C(O)C2=CO1 (stereo not drawn)
  1.7, ., ., 11%, i, ., -0.9, ., .
Cc1ccc2c(c1)/C(=C/c1ccccc1C)C(=O)N2
  -4.2, -5, -52, -6%, i, 0.66, 7.9, -7.0, -56
Cc1cccn2cc(CCNC(=O)c3ccco3)nc12
  1.0, -26, 3, 5%, i, 0.76, -6.8, 0.7, 14
CN1CCN(c2ccc(CNS(=O)(=O)Cc3ccc(Cl)cc3)cc2)CC1
  -2.6, -5, 18, 13%, i, 0.7, ., -0.5, -4
O=C(Cc1ccccn1)N[C@H]1CC[C@H](CCn2cc(-c3ccccc3)nn2)O[C@@H]1CO
  ., ., 1, ., i, ., 2.1, -1.7, 2
CC(C)C(NC(=O)C1(NC(=O)OCc2ccccc2)CCCC1)C(=O)O (stereo not drawn)
  -0.6, ., 14, -12%, ., 0.67, 3.0, 4.1, 11
O=C(c1ccccc1)n1nc(-c2ccccc2)nc1NCc1ccco1
  -2.7, 32, 2, -1%, i, 0.73, 4.2, -2.3, 1
Cc1ccc(S(=O)(=O)N2CCC(N3CCCCCC3)CC2)cc1
  6.5, 2, ., 8%, ., 0.65, ., ., .
COc1ccc(CCNC(=O)CSc2cccc3cccnc23)cc1OC
  0.6, -15, -2, ., i, 0.69, -19, 7.5, -17
CCOC(=O)c1c(NC(=O)C(=O)N/N=C/c2ccccc2O)sc2c1CCCCC2
  4.5, -39, 13, ., i, ., 2.4, 0.2, 14
COC(=O)c1nn(-c2ccccc2)ccc1=O
  -3.1, -3, ., 0%, ., 0.75, ., ., .
Nc1cc([N+](=O)[O-])ccc1O
  -3.2, 99*, 4, ., i, 0.68, -110, 6.4, 7
CC1(C(=O)NS(=O)(=O)C2CC2)CCN(C(=O)c2ccccc2F)C1 (stereo not drawn)
  -0.8, ., ., ., i, ., -0.3, ., .
CCOC(=O)c1ccc2c(c1)n(CCO)c(C)[n+]2CC
  -3.1, -11, ., 15%, ., 0.7, ., ., .
Cc1cccc(NC(=O)CCc2nnc3ccc(N4CCC(C)CC4)nn23)n1
  2.3, -3, ., 1%, ., 0.69, ., ., .
Cc1nn(Cc2c(F)c(F)c(F)c(F)c2F)c(C)c1NC(=O)c1nn(C)cc1Br
  -0.4, 2, 8, 1%, i, 0.73, -1.7, -0.3, 10
COc1ccc2[nH]c(=O)c(CN(Cc3nnnn3Cc3ccco3)C3CCCCC3)cc2c1
  7.2, -2, ., ?, ., 0.68, ., ., .
O=C(Cn1nc(-c2ccc(Cl)cc2)ccc1=O)NCC1COCCO1 (stereo not drawn)
  -0.8, -13, -3, ., i, 0.66, -0.4, -2.5, 6
CC1CC(C)CN(CC(=O)c2cccs2)C1 (stereo not drawn)
  3.9, -6, 17, 13%, i, 0.7, -1.0, 2.5, 4
CCCc1cn(CC[C@@H]2CC[C@@H](NC(=O)C3CCCC3)[C@H](CO)O2)nn1
  ., ., 0, ., i, ., 0.6, -1.8, 4
COc1ccc(CN2C(=O)C(CC(=O)NC3CCCCC3)CC(C(=O)N(C)C)=C2C)cc1 (stereo not drawn)
  -4.5, ., 5, -3%, i, ., -2.9, -4.5, 11
Nn1c(Cc2cccc3ccccc23)nnc1SCCOc1ccc(Br)cc1
  4.4, -3, ., 9%, ., 0.7, ., ., .
Cc1cc(C(=O)COC(=O)c2cc(Cl)c(O)c(Cl)c2)c(C)n1C
  -23, 6, ., ?, i, 0.73, -4.0, ., .
CC1CCN(CCCOc2ccc(Cl)cc2Br)CC1
  2.1, 1, 11, -4%, i, 0.64, -0.6, 22, 1
Cc1ccc(S(=O)(=O)Nc2ccccc2F)cc1C(=O)N1CCCC1
  -5.0, 3, 6, -6%, i, 0.69, -5.5, -2.3, 13
C[C@H]1CN([C@@H](C)CO)C(=O)c2cc(Br)cnc2O[C@@H]1CN(C)C(=O)c1ccccn1
  ., ., 2, ., i, ., -1.8, -0.6, 16
N#C[C@H]1[C@H](c2ccccc2)[C@H](CO)N1S(=O)(=O)c1ccc(-c2ccccc2)cc1
  ., ., 4, ., i, ., -1.4, 0.4, -27
COc1ccc(-c2c3c(=O)n(C)c(=O)n(C)c3cn2C2CCCCC2)cc1
  4.7, 3, -4, -4%, ., 0.71, 14, 3.2, -12
COc1cccc(CC(=O)NNC(=O)CN(C)S(=O)(=O)c2ccc(C)cc2)c1
  3.7, 5, 8, ., i, 0.72, -1.9, 1.6, 10
COc1cc(O)c(C(CCN2CCOCC2)c2cc(OC)c(OC)c(OC)c2)c(OC)c1 (stereo not drawn)
  -1.8, 24, -6, ., i, 0.68, 6.7, -3.5, 4
CC1CCCN(C(=O)NC2CC(=O)N(c3ccc4c(c3)OCCO4)C2)C1 (stereo not drawn)
  2.5, ., -18, 1%, i, 0.71, -1.4, 0.2, -14
COc1ccc(S(=O)(=O)N2C3CCC2CC(NC(=O)NC2CCCCC2)C3)cc1 (stereo not drawn)
  -4.8, ., 3, ?, i, 0.7, -1.4, 1.3, 9
C[C@H](CO)N1C[C@H](C)[C@@H](CN(C)Cc2ccc(C(=O)Nc3ccccc3N)cc2)Oc2ccc(NS(=O)(=O)c3cn(C)cn3)cc2CC1=O
  ., ., -4, ., i, ., 0.8, 2.4, -4
C/C=C/c1ccc([C@H]2[C@@H](CO)N(C(=O)Cc3ccccn3)[C@H]2C#N)cc1
  ., ., 1, ., i, ., -0.2, -2.0, 9
COc1cc(C(=O)NCC2CCCO2)ccc1OCc1ccc(Cl)cc1 (stereo not drawn)
  1.7, 0, 4, -8%, i, 0.7, 0.6, -3.7, 9
CC1CCCC(C)N1CCCNC(=O)c1csc2c1CCCCC2 (stereo not drawn)
  1.9, 0, 5, ., i, 0.65, 1.2, -3.7, 11
O=C(NCc1ccc2c(c1)OCO2)c1ccc2c(=O)n(C3CCCC3)c(=O)[nH]c2c1
  2.2, -6, ., 0%, ., 0.71, ., ., .
CCCN=Cc1ccc(O)cc1
  3.8, -38, 12, -10%, i, 0.67, -12, -2.2, 7
C[C@@H]1CN([C@@H](C)CO)C(=O)c2cc(C#CC3(O)CCCC3)cnc2O[C@H]1CN(C)Cc1cccnc1
  ., ., 1, ., i, ., -0.8, -1.5, 5
CC1CCN(Cc2c(C(=O)N/N=C/c3ccc(C(C)C)cc3)nnn2-c2nonc2N)CC1
  9.2, 1, 4, ., i, ., -2.5, 1.4, 7
N#Cc1ccccc1S(=O)(=O)N1CCN(C(=O)c2cn(-c3ccccc3)nc2-c2cccnc2)CC1
  2.6, 2, ., -14%, i, 0.69, -2.2, ., .
O=C(Nc1cccc(F)c1)c1c(F)c(F)c(F)c(F)c1F
  5.4, -7, ., -4%, ., 0.63, ., ., .
CC(=O)Nc1ccc(S(=O)(=O)NNC(=O)CCC(=O)NCc2ccccc2)cc1
  1.3, 28, 1, ., i, 0.68, 0.6, -1.0, 4
Cc1[nH]c(=O)c(C#N)c(C)c1CSc1ncccn1
  -3.1, -2, 12, ., ., 0.61, -3.9, -2.4, 8
CC(C)NC(=O)N(C)C[C@H]1Oc2c(NS(C)(=O)=O)cccc2C(=O)N([C@@H](C)CO)C[C@H]1C
  ., ., 4, ., i, ., -1.5, -1.1, 7

Further structures follow:
The line under a structure holds: HNF4A DNA FP, ALR H2O2 inh, Ecoli rRNA inh, Vif A3G, FGF22 binding, Ecoli growth, AF4-AF9 inh, Ecoli rRNA inh RFP, Ecoli rRNA inh OD600
CCCCN(C)c1c(C)nc2ccc(C(=O)NCCc3c[nH]c4ccccc34)cn12
  1.7, ., -21, ., i, ., -5.5, -4.4, -54
COC(=O)c1[nH]c2ccc(C)cc2c1NC(=O)CN1CCCc2ccccc21
  11, -14, ., 9%, ., 0.74, ., ., .
COCCCn1c(C)nnc1SCc1ccc(C(C)(C)C)cc1
  -1.3, -4, -14, -2%, i, 0.66, 0.9, -1.1, -9
Nc1ccccc1C(=O)N1CCCC1
  0.8, 4, 20, 4%, i, 0.67, -2.0, 0.3, 11
Cc1ccc(C(=O)NCC(c2ccco2)N2CCCCC2)s1 (stereo not drawn)
  0.2, ., 7, -8%, i, 0.72, 3.7, -0.4, 8
C[C@@H]1CN([C@H](C)CO)C(=O)c2cc(NC(=O)CCCN(C)C)ccc2O[C@@H](C)CCCCO[C@H]1CN(C)S(=O)(=O)c1cccs1
  ., ., 3, ., i, ., 1.1, -1.0, 9
C[C@@H]1CN([C@@H](C)CO)C(=O)CCCn2nncc2CO[C@@H]1CN(C)CC1CCCC1
  ., ., -3, ., i, ., -0.5, -2.5, 8
Cc1ccc(Cl)cc1N1CCN(C(=O)c2noc(C(C)C)c2[N+](=O)[O-])CC1
  -11, -1, 3, ., i, 0.69, 4.7, 3.5, -5
CC(=O)N1N=C(N)SC1c1cccc([N+](=O)[O-])c1 (stereo not drawn)
  2.6, ., ., 25%, ., 0.69, ., ., .

Assay outcomes as filed in PubChem.
